# Screens (PubChem)
# B2AR ag – beta2AR agonists driving receptor internalization, primary screen, cell-based, FAP fluorogen, flow cytometry; Am2.2-beta2AR cells; reference of the scale not given here; response, % (no concentration beside the values); 340,000 tested, 0.43% active; AID 504454, 2011;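 active means response above a set limit, near 3 SD of response in nonfluorescent compounds, cut at about 42% in these data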;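 further: stock transfer was 100 nL into about 11 µL; a reference agonist was the positive control; negative values mostly stem from fluorescent compounds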
# Target sequence (P07550 whole entry, looked up): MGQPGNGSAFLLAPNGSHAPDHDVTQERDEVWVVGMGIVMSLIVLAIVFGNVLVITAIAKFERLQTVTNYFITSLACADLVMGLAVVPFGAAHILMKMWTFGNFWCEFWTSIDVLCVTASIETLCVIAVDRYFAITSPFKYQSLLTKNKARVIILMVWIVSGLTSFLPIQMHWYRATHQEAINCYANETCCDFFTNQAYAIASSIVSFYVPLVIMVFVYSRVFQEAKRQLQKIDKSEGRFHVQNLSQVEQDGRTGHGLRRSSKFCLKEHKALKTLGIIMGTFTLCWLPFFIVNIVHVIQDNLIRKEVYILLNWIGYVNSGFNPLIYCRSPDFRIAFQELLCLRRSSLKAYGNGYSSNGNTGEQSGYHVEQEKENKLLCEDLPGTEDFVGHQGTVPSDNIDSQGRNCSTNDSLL
# FGF22 binding – binders of human FGF22 protein, primary screen, FGF22 synaptogenesis inhibitor project, biophysical, thermal shift, single point | calls only at 9.99 µM | recombinant FGF22 thermal shift, SYPRO orange fluorescence; percent of sucrose octasulfate shift, DMSO zero | 340,000 tested, 1.5% active | Fibroblast growth factor 22 (Homo sapiens), Q9HCT0;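 active means melting point raised past a set limit in the mean and every replicate; three in four hits are not shown here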
# Target sequence (Q9HCT0 whole entry, looked up): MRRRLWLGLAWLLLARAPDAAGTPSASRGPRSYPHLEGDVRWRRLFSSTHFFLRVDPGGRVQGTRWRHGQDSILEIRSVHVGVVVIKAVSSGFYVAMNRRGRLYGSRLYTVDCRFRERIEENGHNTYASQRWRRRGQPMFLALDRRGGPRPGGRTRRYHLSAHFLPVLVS
# HNF4A DNA FP – change in binding of human HNF4A to DNA, primary screen, biochemical, fluorescence polarization, FITC-DNA; Hepatocyte nuclear factor 4-alpha (Homo sapiens), P41235; 1 h; activity change, % at 10 µM; 360,000 tested, 0.3% active; AID 1224865, 2016; in the data active means activity change above about 30%, passing the limit was not always enough;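 further: controls were the assay level and a saturating level of protein; the project sought stronger binding though the title names inhibitors; some compounds called inactive have numbers as strong as hits; positive values seem to mean higher polarization but the record does not say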
# UCH37 DUB inh – inhibitors of human UCH37 deubiquitinase, primary screen, biochemical, Ub-AMC cleavage, fluorescence; inhibition, % (no concentration beside the values); AID 588478, 2011; 330,000 tested, 0.33% active; purified proteasome/UCH37; Ubiquitin carboxyl-terminal hydrolase isozyme L5 (Homo sapiens), Q9Y5K5;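 active means mean of two replicates above 20%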;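 further: 0% = compound-free wells with enzyme and 100% = wells lacking proteasome; stock transfer was 100 nL into about 20 µL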
# Target sequence (Q9Y5K5 whole entry, looked up): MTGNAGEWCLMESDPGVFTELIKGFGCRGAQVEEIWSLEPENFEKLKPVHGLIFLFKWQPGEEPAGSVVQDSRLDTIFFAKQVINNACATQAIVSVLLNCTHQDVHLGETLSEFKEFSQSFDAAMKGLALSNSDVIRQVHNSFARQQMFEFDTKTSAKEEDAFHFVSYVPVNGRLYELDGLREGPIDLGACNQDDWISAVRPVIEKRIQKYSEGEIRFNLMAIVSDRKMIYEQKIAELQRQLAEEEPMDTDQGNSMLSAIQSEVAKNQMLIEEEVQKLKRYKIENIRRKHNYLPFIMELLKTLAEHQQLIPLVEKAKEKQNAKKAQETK
#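 Material: Human UCH37 enzyme supplied as purified proteasome complex | Schedule: 30 min compound-proteasome preincubation then 25 min substrate reaction, room temperature | Detection: AMC fluorescence from Ub-AMC cleavage, excitation 355 nm, emission 460 nm | Benchmarks: Wells without proteasome as full block, compound-free enzyme plus substrate as uninhibited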
# ALR H2O2 inh – inhibitors of human ALR sulfhydryl oxidase, primary screen, biochemical, H2O2 detection, HRP-luminol luminescence, single point; inhibition, % (no concentration beside the values); purified ALR, DTT oxidation; 290,000 tested, 3.8% active;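 active means mean and each replicate at 75% or more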;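 further: stock transfer was 7.5 nL into about 7.5 µL; 0% = neutral wells and 100% = wells with inactivated enzyme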
# E coli growth – E. coli growth inhibition, primary screen, OD600 | Escherichia coli growth, 23 h; active compounds read low | OD600 absorbance (no concentration beside the values) | 330,000 tested, 0.21% active | AID 1053175, 2014;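 active means OD600 absorbance below the run mean of sample wells minus 3.6 SD, in any replicate, cut at about 0.56 in these data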;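 further: stock transfer was 300 nL into about 60 µL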
# rRNA inh HTS – reduced GFP signal of wild-type E. coli, primary screen, bacterial rRNA inhibitor project, GFP/RFP fluorescence, OD600, single point; E. coli WT GFP vs humanized-ribosome RFP mutants, 24 h; active compounds read low; DMSO median 0, no signal -100; GFP signal change (wild-type ribosome), % (no concentration beside the values); 350,000 tested, 1.6% active; AID 720706, 2013;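 active means significant combined selectivity score with lowered wild-type GFP, culture density cut under 30%, mutant RFP and density less affected; inactive means any of these conditions unmet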; further: one replicate is shown; some compounds called inactive have numbers as strong as hits
# rRNA inh HTS OD600 – also measured in rRNA inh HTS; calls as there; OD600 change, %; measured here: OD600 growth;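 optical density of the mix in the first replicate; 0 = DMSO median and -100 = no signal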
# rRNA inh HTS RFP – second read-out of rRNA inh HTS, no call of its own (marks repeat the call); RFP signal change, %; measured here: RFP humanized mutant strains;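 first replicate; 0 = DMSO median and -100 = no signal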
# * marks the source's active call; other numbers are inactive results; i = inactive; nt = not tested or not shown; & = joins results of further samples. Only part of the results is shown (hit frequency here may not be typical).
SMILES,B2AR ag,FGF22 binding,HNF4A DNA FP,UCH37 DUB inh,ALR H2O2 inh,E coli growth,rRNA inh HTS,rRNA inh HTS OD600,rRNA inh HTS RFP
Cc1ccc(C(=O)Nc2nc(-c3ccc4c(c3)OCCO4)cs2)o1,nt,i,4.7,nt,nt,nt,-11,-25,-0.1
CC1(C)C[C@H]2C3=CCC4[C@@]5(C)CC[C@H](O)[C@](C)(CO)C5CC[C@@]4(C)[C@]3(C)C[C@@H](O)[C@@]2(CO)[C@@H](O)[C@@H]1O (stereo partly specified),-7,i,2.9,2.9,nt,0.73,0,4,-5.3
COc1ccccc1NC(=O)c1ccccc1C(=O)Nc1ccccc1OC,7,i,0.4,0.7,-16,0.66,0,-8,1.3
CN1CCCN(Cc2cccc3ccccc23)CC1,-5,i,-0.5,3.2,nt,0.66,4,6,0.1
CCc1nc(NCc2ccccn2)c2oc3ccccc3c2n1,-9,nt,2.5,3.0,-2,0.74,nt,nt,nt
CC(NC(=O)C1CCC(C(C)(C)C)CC1)C(c1ccccc1)N1CCOCC1 (stereo unspecified),-1,nt,1.4,1.1,-1,0.65,-26,-46,8.2
O=S(=O)(N/N=C\c1ccc2c(c1)OCO2)c1ccc(Cl)cc1,11,nt,-0.4,nt,35,nt,nt,nt,nt
COc1ccc(OCC(=O)N/N=C/c2ccc(N(C)C)cc2)cc1,18,i,-2.0,nt,98*,nt,7,4,0.7
CCNC(=S)N(CCc1c(C)[nH]c2ccc(C)cc12)Cc1cccnc1,12,i,3.4,-0.7,50,0.69,-4,-4,1.1
Cc1cc(C)n2c(SC/C(O)=C(\C#N)c3nc4ccccc4[nH]3)nnc2n1,5,nt,-13,nt,-33,nt,nt,nt,nt
COc1ccc(NC(=O)c2ccco2)cc1NC(=O)c1cccnc1,-24,nt,-1.3,2.3,-7,0.64,nt,nt,nt
COc1ccc(NS(=O)(=O)c2cc(NC(=O)c3ccc(=O)[nH]n3)ccc2C)cc1,-2,i,-0.6,1.0,1,0.68,4,7,3.3
CC(=O)C1CCC2C3CCC4=CC(=O)CCC4(C)C3(F)C(O)CC12C (stereo unspecified),-14,i,3.5,-0.4,nt,0.65,-5,-10,-3.5
N/C(=N\OC(=O)/C=C/c1ccccc1)c1ccccn1,-6,i,3.8,4.2,3,nt,1,3,-0.5
C/C(=N\NC(=S)Nc1cccc(C)c1)c1cccc(N)c1,0,nt,-2.9,nt,-2,nt,nt,nt,nt
COc1cccc(/C=C/C(=O)NCc2cn3cc(Cl)ccc3n2)c1,-6,i,1.3,-10,nt,0.67,-17,-8,1.8
COc1ccc(N2CCN(CC(=O)NCc3ccc(Cl)cc3)CC2)cc1,-4,i,-2.5,3.3,89*,0.66,-3,-6,-2.4
Cc1cc(C)cc(NC(=O)CSc2n[nH]c(-c3cccnc3)n2)c1,1,i,0.7,5.4,4,0.7,-7,-18,-1.1
O=C(NN1C(=O)NC2(CCCCC2)C1=O)c1cccs1,3,i,1.3,1.8,-7,0.63,2,4,-0.6
C=CCNC(=O)NC(=O)c1csc([N+](=O)[O-])c1,-4,i,4.2,8.7,-18,0.68,-8,-11,-2.9
Cc1cc(Br)cc(C)c1NC(=O)c1ccc(C#N)cc1F,2,i,-6.1,0.9,-1,0.71,11,8,0.1
Cc1ccc(-c2[nH]c3ccccc3c2SCCNC(=O)c2ccc(S(=O)(=O)N3CCOCC3)cc2)cc1,-3,i,3.1,2.8,0,0.74,1,12,2.7
Cc1cc(C)c(C(=O)COC(=O)Cn2cnnn2)cc1C,3,nt,0.8,0.8,-9,0.63,nt,nt,nt
Cc1nn(C)cc1CN(C)C(=O)CCc1nnc(CCC2CCCCC2)o1,-10,i,3.0,0.3,-17,0.71,1,1,-3.9
COc1ccccc1NC(=O)Nc1nc(CC(=O)N2CCN(c3ccccc3OC)CC2)cs1,16,i,1.1,-0.7,nt,0.7,-4,-10,11
# (more compounds)
SMILES,B2AR ag,FGF22 binding,HNF4A DNA FP,UCH37 DUB inh,ALR H2O2 inh,E coli growth,rRNA inh HTS,rRNA inh HTS OD600,rRNA inh HTS RFP
COc1cc(Nc2ccccn2)cc(C(=O)Nc2cccc(C(F)(F)F)c2)c1,20,i,0.4&1.7,-1.5,-14,0.65,-57,-69,-14
O=C1CCCN=C(Nc2ccc(F)c(Cl)c2)S1,8,i,-1.2,5.6,-2,0.7,6,3,2.3
CCc1c(C(=O)N/N=C/c2ccco2)nnn1-c1nonc1N,1,i,4.8,nt,nt,nt,5,4,-2.9
O=C(CN1C(=O)c2ccccc2C1=O)Nc1ccc(S(=O)(=O)NCC2CCCO2)cc1 (stereo unspecified),2,i,-0.9,-1.6,-12,0.68,4,-1,0.3
O=C(Nc1nccs1)C1CCN(S(=O)(=O)c2c(Cl)cccc2Cl)CC1,2,nt,-0.5,0.3,-1,0.66,nt,nt,nt
CC(C)c1ccc(NC(=O)COC(=O)C2=COCCO2)cc1,5,nt,-1.3,-2.8,-17,0.74,nt,nt,nt
COc1ccc(C2N(c3ccccc3)C(=S)N3CCCN23)cc1 (stereo unspecified),4,nt,0.8,1.2,-2,0.69,nt,nt,nt
Cc1cccc(NC(=O)CN2C(=O)/C(=C3\SC(=S)N(CC4CCCO4)C3=O)c3ccccc32)c1 (stereo unspecified),-4,nt,-1.6,3.4,2,0.74,nt,nt,nt
CCOC(=O)C1CCCN(CCC(=O)Nc2cc(OC)ccc2OC)C1 (stereo unspecified),9,i,0.8,1.5,nt,0.71,-1,10,0.1
CC1Cc2ccccc2N1C(=O)CSc1nnc2sc3ccccc3n12 (stereo unspecified),-19,nt,1.6,3.4,-5,0.73,nt,nt,nt
COc1ccccc1NC(=O)Nc1ccc(C)cn1,2,i,-1.8,4.7,13,0.72,7,11,-0.7
COc1ccc(OCC(=O)Nc2nnc(-c3ccco3)s2)cc1,-9,nt,-3.2,2.5,-4,0.68,nt,nt,nt
COc1ccc(NC(=O)c2cccc(Cn3cc(Br)c([N+](=O)[O-])n3)c2)c(C)c1,-5,i,1.9,-0.7,-4,0.64,7,9,-0.1
CC1(C(=O)Nc2nccs2)CCN1C(=O)CC(c1ccccc1)c1ccccc1 (stereo unspecified),nt,i,-2.2,nt,nt,nt,-14,-26,-6.1
CCn1c(SCC(=O)NC2CCCC2)nnc1-c1c[nH]c2ccccc12,4,i,-4.3,0.4,-15,0.67,-1,3,-6.3
COc1cc(OC)c(C2=NOC(C(=O)N3CCN(C(=O)c4ccco4)CC3)C2)cc1Cl (stereo unspecified),-4,i,3.2,4.2,24,0.7,-10,-13,-0.3
O=C(NCCCN1CCOCC1)C(=O)N/N=C/c1ccc2c(c1)OCO2,-2,i,-0.6,nt,-4,nt,18,16,-1.6
CCc1ccc(NC(=O)CSc2nnc(SCC(=O)Nc3ccc(CC)cc3)n2N)cc1,-1,nt,1.6,-0.1,-6,0.7,nt,nt,nt
CC1CCN(CCOc2ccc(OCc3ccccc3)cc2)CC1,-8,i,2.4,nt,5,nt,4,-23,9.5
Cc1cccc(NC(=O)CN2CCN(CC(=O)Nc3cccc(C)c3)CC2)c1,6,nt,1.3,4.3,-2,0.68,nt,nt,nt
CC(=O)Nc1ccc(C(=O)CSc2nc3ccccc3n2CC(=O)N2CCCC2)cc1,-4,nt,-1.3,1.5,0,0.7,nt,nt,nt
COc1cc(Cn2c3ccc(NC(=S)NCc4ccc(C)cc4)cc3c(=O)n2C)ccc1F,nt,i,-3.8,nt,nt,nt,0,-9,-0.9
COc1cc(NC(=O)C/C(C)=N/NC(=O)c2ccccn2)c(OC)cc1Cl,5,i,2.7,nt,2,nt,-1,7,-0.9
Cc1oc(-c2cc(F)ccc2F)nc1CN1CCN(c2cnccn2)CC1,5,i,3.3,-4.9,nt,0.72,2,2,2.2
COc1ccc(-c2nnc(SCC(=O)Nc3ccc(Cl)cc3)n2C)cc1,3,i,1.4,0.5,-2,0.68,nt,nt,nt
# The list continues:
SMILES,B2AR ag,FGF22 binding,HNF4A DNA FP,UCH37 DUB inh,ALR H2O2 inh,E coli growth,rRNA inh HTS,rRNA inh HTS OD600,rRNA inh HTS RFP
O=C1Nc2ccccc2C1Cc1ccccn1 (stereo unspecified),0,i,-0.3,1.7,17,0.69,22,12,0.4
COC(=O)C(NC(=O)CN1C(=O)c2ccccc2C1=O)c1ccc(O)c(OC)c1 (stereo unspecified),4,i,-2.9,1.6,12,0.67,7,7,-2.5
Cc1ccc(NC(=O)N(CCCN2CCOCC2)Cc2cccs2)cc1C,0,i,-0.8,9.0,2,0.77,1,0,-0.9
CCOC(=O)c1sc(Nc2nc(OC)cc(OC)n2)nc1C,nt,i,nt,-2.7,-3,0.71,10,7,2.8
CCOc1ccc(S(=O)(=O)Nc2ccccc2C(=O)Nc2ccccc2N2CCOCC2)cc1,8,nt,-5.4,-0.6,-3,0.75,nt,nt,nt
CCc1nnc(NC(=O)CSc2nnnn2-c2cccc(C(=O)OC)c2)s1,-10,nt,-0.1,0.7,-3,0.71,nt,nt,nt
COc1cc(OC)c2c(-c3cccc(/C=C/c4ccc(F)cc4)c3)cc(=O)oc2c1,-9,i,0.0,-0.9,nt,0.73,25,12,0.9
CCOc1ccc(NC(=O)c2ccccc2NS(=O)(=O)c2ccc(F)cc2)c([N+](=O)[O-])c1,15,nt,-2.9,3.0,-6,0.72,nt,nt,nt
COc1cccc(NC(=O)C2(C)CCN2CCc2ccccc2)c1 (stereo unspecified),nt,i,5.3,nt,nt,nt,-30,-34,-10
O=C(CSc1ccc(-c2ccccc2)nn1)Nc1ccc2c(c1)OCCO2,-6,i,1.8,-0.1,-16,0.65,-10,-11,7.3
CCS(=O)(=O)N1N=C(c2cccc(NS(C)(=O)=O)c2)CC1c1ccccc1 (stereo unspecified),-38,i,181,1.1,-4,0.66,6,2,1.4
COc1ccc(-n2nc3c(c2NC(=O)CC(C)C)CS(=O)C3)cc1 (stereo unspecified),0,i,-5.0,-0.9,0,0.7,9,11,3.6
Cc1cccc(N=N/C(=C\O)C(=O)c2ccc(Br)cc2)c1,2,i,-2.2,0.7,-15,nt,7,9,3.6
O=C(CSc1c2c(nc3ccc(Cl)cc13)CCCC2)NCCCN1CCOCC1,2,nt,3.8,7.0,98*,0.63,nt,nt,nt
CN1/C(=C\C(=S)NC(=O)c2cccc(Br)c2)C(C)(C)c2ccccc21,-21,i,19,7.5,5,0.69,nt,nt,nt

# Record cards, from the list above. Order of screens: B2AR ag, FGF22 binding, HNF4A DNA FP, UCH37 DUB inh, ALR H2O2 inh, E coli growth, rRNA inh HTS, rRNA inh HTS OD600, rRNA inh HTS RFP
# COc1cc(OC)c(C2=NOC(C(=O)N3CCN(C(=O)c4ccco4)CC3)C2)cc1Cl (stereo unspecified) across the screens: -4, i, 3.2, 4.2, 24, 0.7, -10, -13, -0.3
# COc1ccc(OCC(=O)N/N=C/c2ccc(N(C)C)cc2)cc1 across the screens: 18, i, -2.0, nt, 98*, nt, 7, 4, 0.7
# CC(=O)Nc1ccc(C(=O)CSc2nc3ccccc3n2CC(=O)N2CCCC2)cc1 across the screens: -4, nt, -1.3, 1.5, 0, 0.7, nt, nt, nt
# CC1CCN(CCOc2ccc(OCc3ccccc3)cc2)CC1 across the screens: -8, i, 2.4, nt, 5, nt, 4, -23, 9.5
# Cc1ccc(NC(=O)N(CCCN2CCOCC2)Cc2cccs2)cc1C across the screens: 0, i, -0.8, 9.0, 2, 0.77, 1, 0, -0.9
